GALR2 agonist = GALR2 receptor agonists, primary screen, cell-based | Galanin receptor type 2 (Homo sapiens), O43603 | GALR2-expressing cells, agonist activation read-out | activation, %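 (tested at 5 µM)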 | 140,000 tested, 0.48% active;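 active = above mean plus 3 SD of all compounds, about 5% in these data, not always enough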;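 also: 0% = vehicle buffer wells and 100% = reference agonist at full effect; tested in CHO reporter cells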
Target sequence (O43603 whole entry, looked up): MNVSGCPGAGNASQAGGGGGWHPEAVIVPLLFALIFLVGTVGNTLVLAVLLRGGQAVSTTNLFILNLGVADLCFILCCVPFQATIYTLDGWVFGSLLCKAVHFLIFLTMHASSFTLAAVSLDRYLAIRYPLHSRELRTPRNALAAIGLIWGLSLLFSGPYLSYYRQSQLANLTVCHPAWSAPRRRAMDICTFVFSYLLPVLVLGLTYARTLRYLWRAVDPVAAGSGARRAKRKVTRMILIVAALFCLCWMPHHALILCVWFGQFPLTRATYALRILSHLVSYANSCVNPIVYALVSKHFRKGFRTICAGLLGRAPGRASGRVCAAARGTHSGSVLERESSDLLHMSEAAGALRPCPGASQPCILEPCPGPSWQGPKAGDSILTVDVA
PKD1 kinase inh = inhibitors of human PKD1 kinase, biochemical, fluorescence polarization | 200,000 tested, 0.056% active | Serine/threonine-protein kinase D1 (Homo sapiens), Q15139 | inhibition, %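 (about 10 µM by stock and volumes)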 | PKD1 kinase fluorescence polarization assay;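 active = inhibition of 50% or more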;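 also: controls were vehicle for no effect and a reference inhibitor for full effect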
HSV replic up = enhancers of HSV replication in host cells, fold increase, host cell viability | 220,000 tested, 0.005% active | maximum fold increase | HSV replication augmentation in cells;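 active = peak rise of 1.5-fold or more in the series; tested in PC3 cells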;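 also: first round at 10 µM; read as green reporter fluorescence; hits show the peak of a series up to 25 µM; 1 = signal of infected wells without compound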
INS promoter inh = inhibitors of insulin promoter-driven GFP, primary screen, imaging, TRM-6 cells (human fetal islet line), eGFP reporter, cell count. reporter expression induced with tamoxifen. inhibition, % at 2 µM. 130,000 tested, 0.9% active. AID 1273, 2008;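 active = inhibition above the mean plus 3 SD, with well images judged a real hit on visual review, cut at about 60% in these data, passing the limit was not always enough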
RGS16-Gao = modulators of RGS16 binding to Galphao, primary screen, biochemical, human proteins, multiplexed bead flow cytometry | bead-based flow cytometry RGS16-Galphao binding, fluorescence; actives lie on both sides | binding response (% of control), % at 10 µM | 220,000 tested, 0.38% active | AID 1441, 2008;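 active = below 25% or above 175%, edge rows of some plates excepted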;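 also: Galphao activated by GDP with aluminum fluoride before binding; 100% = wells without compound and 0% = beads without RGS; some results beyond the cut were filed as inactive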
Target sequence (O15492 whole entry, looked up): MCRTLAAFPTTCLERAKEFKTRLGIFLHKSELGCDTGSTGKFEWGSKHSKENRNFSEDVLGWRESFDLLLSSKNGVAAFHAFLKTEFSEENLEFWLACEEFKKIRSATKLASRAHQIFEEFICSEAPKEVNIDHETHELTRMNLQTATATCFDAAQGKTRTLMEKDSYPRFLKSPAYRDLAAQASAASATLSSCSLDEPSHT
Target sequence (P09471 whole entry, looked up): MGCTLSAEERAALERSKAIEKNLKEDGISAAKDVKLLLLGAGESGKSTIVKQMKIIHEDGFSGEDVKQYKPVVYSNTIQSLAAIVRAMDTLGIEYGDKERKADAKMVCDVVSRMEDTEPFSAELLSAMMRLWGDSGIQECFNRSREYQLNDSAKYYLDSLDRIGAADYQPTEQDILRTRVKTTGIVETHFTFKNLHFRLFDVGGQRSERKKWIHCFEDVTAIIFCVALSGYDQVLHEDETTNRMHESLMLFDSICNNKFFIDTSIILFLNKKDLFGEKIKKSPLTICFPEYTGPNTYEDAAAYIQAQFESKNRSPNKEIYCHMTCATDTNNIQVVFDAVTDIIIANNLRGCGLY
INS promoter inh cell count = recorded beside INS promoter inh, whose call it bears; normalized cell count, %; measured here: cell count, toxicity; reference of the scale not given here;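 cells exposed to compound for 48 h; stained nuclei by imaging scaled within each plate; lower means fewer cells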
HSV replic up primary fold = recorded beside HSV replic up, whose call it bears; fold increase; compound at 10 µM; measured here: primary screen fold increase 10 uM; tested in PC3 cells;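 GFP signal in the first replicate; 1 = infected wells without compound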
* = called active by the depositor; i = inactive; x = not tested or not shown.

SMILES	GALR2 agonist	PKD1 kinase inh	HSV replic up	HSV replic up primary fold	INS promoter inh	INS promoter inh cell count	RGS16-Gao
O=C(CSc1nnnn1-c1ccccc1)Nc1ncc2c(n1)CC(c1ccccc1)CC2=O (stereo unspecified)	-1.1	-2	i	0.91	6	56	89
C=CCSc1nc2ccccc2n1S(=O)(=O)c1ccc(C)cc1	-2.1	-3	i	1	95*	116*	82
c1ccc2c(c1)Oc1cccc3cccc-2c13	x	x	i	1	x	x	101
O=C1C2C3C=CC(CC3)C2C(=O)N1c1nccs1 (stereo unspecified)	-0.3	5	i	0.95	34	102	101
Cc1cc(C)cc(N2CN=C3SCC(=O)N3C2)c1	-1.6	-3	x	x	15	49	91
Cc1sc2nc3n(c(=O)c2c1C)CCCCC3	-0.4	-6	i	1.1	-93	93	66
O=C(CN1CCC2(CC1)OCCO2)c1ccc2cc[nH]c2c1	-3.5	-1	i	1.4	x	x	95
COC(=O)C(Cc1ccccc1)NC(=O)c1ccc(C)cc1 (stereo unspecified)	x	2	i	0.99	40	96	103
CCOC(=O)CCc1c(C)c2ccc(OCc3cc([N+](=O)[O-])ccc3OC)cc2oc1=O	-3.8	3	x	x	8	102	109
COc1cccc(NC(=O)C2c3cc(OC)c(OC)cc3C(=O)N(C)C2c2cccnc2)c1 (stereo unspecified)	-0.4	-1	i	0.84	2	136	90
NC(=O)/C(=C/c1ccco1)NC(=O)c1ccc(Br)o1	1.4	-4	i	0.9	-7	50	x
CC(C)c1csc(CN2CCN(Cc3ccc(F)cc3)C(CCO)C2)n1 (stereo unspecified)	x	-2	i	0.95	17	102	101
CN1CCC(NC(=O)NC2CCCCC2)CC1	x	x	i	1.1	x	x	94
Cc1nc(-c2ccc(Cl)cc2)sc1C(=O)O	x	-6	i	0.88	-47	123	100
CCN(C(=O)CSc1nc2ccccc2n1CCc1ccccc1)C1CCS(=O)(=O)C1 (stereo unspecified)	-0.7	-10	i	1	-62	102	94
CCCCCCNC(=O)CCCCCNS(=O)(=O)c1ccc(Br)cc1	x	-6	i	0.97	-57	112	103
CCOC(=O)c1ccccc1NC(=O)c1nc2nccc(C)n2n1	0.6	-4	i	0.99	-92	99	107
COc1cc(C(=O)O/N=C(\N)Cc2ccc([N+](=O)[O-])cc2)cc(OC)c1OC	x	x	i	0.91	x	x	101
O=C(O)/C=C/c1cccc(NC(=O)c2ccc(Cl)cc2)c1	x	-3	i	1.1	0	121	91
CC(C)(C)NC(=O)c1nc2ccccc2s1	-4.3	3	i	0.97	23	152	111
CSCC[C@H](NC(=O)c1ccc(Cl)c(S(=O)(=O)N2CCCC2)c1)c1nc2ccccc2[nH]1	-1.9	-5	i	0.91	-50	117	99
Cc1ccc(C(=O)N(Cc2ccc3c(c2)OCO3)Cc2nc3ccccc3c(=O)[nH]2)cc1	-1.7	-4	i	1.1	12	161	106
Cc1nc(SCC(=O)N2c3ccccc3Sc3ccccc32)n[nH]1	-3.1	0	i	1	-27	67	98
COc1cccc(CN(C(=O)Cc2c[nH]c3ccccc23)C(C(=O)NC2CCCCC2)c2ccc(C)o2)c1 (stereo unspecified)	-1.1	-2	i	0.95	-29	106	99
O=C(NCC(=O)N(c1ccccc1)C(C(=O)NCC1CCCO1)c1ccccc1)c1ccco1 (stereo unspecified)	-1.8	2	i	0.9	x	x	103

Arranged by formula weight (falling): 6 of the compounds above.
SMILES	GALR2 agonist	PKD1 kinase inh	HSV replic up	HSV replic up primary fold	INS promoter inh	INS promoter inh cell count	RGS16-Gao
COc1cccc(CN(C(=O)Cc2c[nH]c3ccccc23)C(C(=O)NC2CCCCC2)c2ccc(C)o2)c1 (stereo unspecified)	-1.1	-2	i	0.95	-29	106	99
O=C(NCC(=O)N(c1ccccc1)C(C(=O)NCC1CCCO1)c1ccccc1)c1ccco1 (stereo unspecified)	-1.8	2	i	0.9	x	x	103
Cc1ccc(C(=O)N(Cc2ccc3c(c2)OCO3)Cc2nc3ccccc3c(=O)[nH]2)cc1	-1.7	-4	i	1.1	12	161	106
COc1cc(C(=O)O/N=C(\N)Cc2ccc([N+](=O)[O-])cc2)cc(OC)c1OC	x	x	i	0.91	x	x	101
CC(C)c1csc(CN2CCN(Cc3ccc(F)cc3)C(CCO)C2)n1 (stereo unspecified)	x	-2	i	0.95	17	102	101
Cc1nc(SCC(=O)N2c3ccccc3Sc3ccccc32)n[nH]1	-3.1	0	i	1	-27	67	98

Next section:
SMILES	GALR2 agonist	PKD1 kinase inh	HSV replic up	HSV replic up primary fold	INS promoter inh	INS promoter inh cell count	RGS16-Gao
CCn1c(SC(C)C(=O)O)nnc1-c1cccnc1 (stereo unspecified)	-2.0	-2	i	1.1	0	101	100
O=C(O)CCCCCNS(=O)(=O)c1ccc2c(c1)OCCO2	x	-7	i	0.88	11	57	107
Nc1c(C(=O)c2ccc(Cl)cc2)sc2nc3c(cc12)CCC3	-0.9	-5	i	1.2	x	x	112
Cc1nonc1CN(C)C(=O)CC1C(=O)NCCN1Cc1ccc(F)c(F)c1 (stereo unspecified)	x	-2	i	0.93	21	117	101
CC(OC(=O)Cc1coc2ccc3ccccc3c12)C(=O)NC(N)=O (stereo unspecified)	x	x	i	0.92	x	x	100
COc1cc(C2C(C#N)=C(N)Oc3cc(C)oc(=O)c32)ccc1OC(=O)N1CCOCC1 (stereo unspecified)	-1.4	-2	i	0.74	x	x	106
Cc1nn(Cc2ccccc2)c(C)c1NC(=O)c1cc(-c2ccco2)on1	-2.0	-4	i	1.1	56	88	108
O=C1CC(c2ccco2)Cc2nc(N3CCc4ccccc4C3)ncc21 (stereo unspecified)	-1.6	1	i	1.2	-124	115	96
Cc1cc(C)n2nc(CCCCc3nc4nc(C)cc(C)n4n3)nc2n1	x	2	i	0.84	-19	125	107
CCC(=Nc1ccccc1)C1=C(O)CCCC1=O	x	x	i	1.2	x	x	101
CS(=O)(=O)Nc1ccccc1C(=O)Nc1cc(Cl)cc(Cl)c1	-2.1	-3	i	1	36	99	102
Cc1cc(C)c(C)c(S(=O)(=O)N2CCC(C(=O)OCC(=O)N3c4ccccc4NC(=O)C3(C)C)CC2)c1C	-0.1	1	i	0.8	-32	97	104
COc1ccc2c(c1)C(=O)C(=O)N2	-1.7	-5	i	0.96	-30	152	98
CCN(CC)c1ccc(NC(=O)C2CC3CCC2C3)cc1 (stereo unspecified)	-0.6	-7	i	0.84	x	x	92
CN(c1ccccc1)S(=O)(=O)c1cccc(NC(=O)CC(C)(C)C)c1	-1.0	-11	i	1.1	-6	98	107
COc1ccc(C2NC(=O)Cc3cc(OC)c(OC)cc32)cc1OC (stereo unspecified)	x	x	i	0.93	x	x	104
CC(=O)c1sc2nc(SCC(=O)N3CCCCC3)[nH]c(=O)c2c1C	-0.7	5	i	1.1	-350	60	139
Clc1cccc(-c2nnc3sc(-c4ccccc4)nn23)c1	-3.2	-13	x	x	40	139	x
N/C(=N\O)c1ccc([N+](=O)[O-])s1	x	x	i	0.97	x	x	99
COc1ccc(Br)cc1CNC(=O)CCNC(=O)Cn1ccc2ccccc2c1=O	x	-7	i	0.86	x	x	100
O=C(c1cnc2n(c1=O)CCS2)N(C1CCCCC1)C1CCCCC1	0.8	6	i	0.92	x	x	89
COC(=O)c1ccccc1NC(=O)C1CC=CCC1C(=O)O (stereo unspecified)	-2.5	-3	i	1.1	50	95	90
CCN(CC)CCN1C(=O)c2ccccc2NC1c1ccc(F)cc1 (stereo unspecified)	-1.0	-10	i	0.85	46	97	102
O=C(CCc1nnc(-c2ccccc2)o1)NC1CCCCC1	x	1	i	0.98	x	x	100
CC(=O)N1CCC2(CC1)C/C(=N\NC(=S)Nc1ccccc1F)c1cc(O)ccc1O2	x	-1	i	0.97	x	x	100
SMILES	GALR2 agonist	PKD1 kinase inh	HSV replic up	HSV replic up primary fold	INS promoter inh	INS promoter inh cell count	RGS16-Gao
Nc1ccccc1C(=O)NC1CCCCNC1=O (stereo unspecified)	x	x	i	1.2	x	x	95
CC(NC(=O)CN(C)S(=O)(=O)c1cnc[nH]1)c1ccccc1 (stereo unspecified)	x	-3	i	1.2	x	x	101
CN(C)CCCN(C(=O)/C=C/c1cccs1)c1nc2c(F)cccc2s1	x	-9	i	0.61	-100	86	91
COc1ccc(CC(=O)NCc2cccs2)cc1OC	-1.3	-6	i	0.98	-30	107	102
Cn1c(C(=O)NCCc2c[nH]c3ccccc23)cc2sccc21	-1.8	0	i	1.1	x	x	106
CCNC(=O)c1oc2c(c1C)C(=O)CC(C)(C)C2	-3.0	-7	i	1.4	71	20	103
CCOC(=O)C1=C(C)N(C)C(=O)NC1c1cccc(O)c1 (stereo unspecified)	-1.3	-1	i	0.72	5	121	97
CN(C(=O)COC(=O)C(Cc1ccccc1)NC(=O)c1ccccc1)c1ccccc1 (stereo unspecified)	-1.0	4	i	0.93	x	x	102
CC(C)NC(=O)/C(C#N)=C\c1ccc(N(C)C)c(Br)c1	x	-6	i	0.85	x	x	100
CC(C)CNC(=S)Nc1ccc(S(N)(=O)=O)cc1	-0.1	6	i	0.9	25	129	103
CCOC(=O)c1sc(NC(=O)CCN2CCC(C)CC2)c(C(=O)OCC)c1C	x	6	i	1	x	x	100
Cc1cc(=O)[nH]c(SCC(=O)Nc2ccc(Br)cc2)n1	x	x	i	0.97	x	x	92
CCOc1ccc(N(CC(=O)NC2CCCC2)C(=O)CSc2nnc(COc3ccccc3)o2)cc1	-0.6	-8	i	0.93	35	106	99
COc1cc(C)c(C(C)C)cc1S(=O)(=O)n1cnc(C)c1	-0.6	-4	i	0.87	x	x	103
Cc1ccc[n+](CC(=O)Nc2cc(C(F)(F)F)ccc2N2CCOCC2)c1	x	2	i	0.94	-67	39	105
CN(c1ccccc1)S(=O)(=O)c1ccc(Cl)c(C(=O)Nc2nc3ccccc3[nH]2)c1	-1.8	-1	i	0.65	9	103	112
COc1cccc(CN2CCN(Cc3ccc(OC)c(OC)c3)CC2CCO)c1 (stereo unspecified)	x	-1	i	0.85	x	x	105
CC(C)C(NC(=O)c1ccccc1)C(=O)NC1=NCCS1 (stereo unspecified)	-5.2	-4	i	0.92	-32	92	110
Cc1[nH]n(-c2ccccc2)c(=O)c1/C=N/n1c(C)nc2ccccc2c1=O	-0.9	-12	i	0.94	-38	59	101
CCN(CC)CCNC(C(=O)Nc1cccc(C(C)=O)c1)c1ccccc1 (stereo unspecified)	x	0	i	0.91	-7	76	112
CC(C)CCNC(=O)NC(=O)Cn1cc(C(F)(F)F)ccc1=O	-0.2	-6	i	0.97	-50	109	106
Cc1ccc(CSc2nnc(Cn3c(=O)sc4ccccc43)n2C)cc1	-0.6	-13	i	1.4	x	x	96
C[C@H](NC(=O)Cn1cncn1)c1ccccc1	-3.5	-3	i	1.1	-22	105	101
CCN(CC)c1ccc(NC(=O)COc2ccccc2C#N)cc1S(=O)(=O)Nc1ccc(OC)cc1	-0.4	58*	i	1	21	51	64
CCOC(=O)C1CCN(c2ncnc3c2oc2ccc(Br)cc23)CC1	-2.0	11	x	x	-25	100	105

Copied from the list:
RGS16-Gao result of COc1cccc(CN2CCN(Cc3ccc(OC)c(OC)c3)CC2CCO)c1 (stereo unspecified) is entered as 105
GALR2 agonist result of CCOc1ccc(N(CC(=O)NC2CCCC2)C(=O)CSc2nnc(COc3ccccc3)o2)cc1 is entered as -0.6
INS promoter inh result of CCOC(=O)C1=C(C)N(C)C(=O)NC1c1cccc(O)c1 (stereo unspecified) is entered as 5

Continued.
SMILES	GALR2 agonist	PKD1 kinase inh	HSV replic up	HSV replic up primary fold	INS promoter inh	INS promoter inh cell count	RGS16-Gao
CCn1c2c(c3cc(C(=O)O)ccc31)CCCC2=O	-2.9	-11	i	0.92	33	132	109
Cc1cc(=O)oc2c(CN3CC(C)OC(C)C3)c(O)c(Cl)cc12 (stereo unspecified)	x	-8	i	1	-8	66	99
CN(C(=O)c1cccnc1)c1nc(-c2ccccc2)cs1	-1.2	-8	i	0.67	x	x	99
Cn1c(CSCC(=O)Nc2ccccc2)nnc1SCc1ccccc1	x	x	i	0.92	x	x	102
CCOC(=O)c1c(C)nc2sc3c(c2c1-c1ccc(OC)cc1)NC(c1ccc(OC)cc1)NC3=O (stereo unspecified)	-3.4	6	i	0.97	-163	129	95
COCCNc1nc2c(c(=O)n(C)c(=O)n2C)n1Cc1cccc(C)c1	-4.7	0	i	1.1	x	x	101
Cc1onc(-c2ccccc2Cl)c1C(=O)c1ccccc1	x	x	i	0.95	x	x	-16*
Cc1ccc([N+](=O)[O-])c(OCCCN2C(=O)NC(C)(C)C2=O)c1	x	5	i	0.96	x	x	102
Cc1cc(C)nc(Sc2ccc(C=O)cc2[N+](=O)[O-])n1	x	6	i	1.1	32	128	103
CC(Oc1ccc2ccc(=O)oc2c1)C(=O)c1ccccc1 (stereo unspecified)	-0.8	-7	i	1	23	82	104
